High-throughput results as filed in PubChem.
S aureus helic – blocks Staphylococcus aureus DNA helicase | AID 485395 | purified S. aureus helicase, fluorescence unwinding assay; about half of the hits fall short of the stated cut | inhibition, %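 (tested at about 80 µM)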 | 120,000 compounds, 0.05% hits;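 active = both duplicates at 50% or more, or one of them with a favoured structure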;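 note: 0% = mean of negative control wells and 100% = mean of positive control wells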
MgrA DNA FP – S. aureus MgrA-DNA binding modulation; 84,000 compounds, 0.13% hits; fluorescence polarization; inhibition, %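 (about 10 µg/mL by stock and volumes)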; AID 602314;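 active = above 50% in either of two replicates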;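 note: 0% = protein plus DNA without compound and 100% = DNA alone without protein; higher means less MgrA bound to DNA so lower polarization; one replicate is shown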
* hit, by the source's call; · = no result given. Only part of the results is shown; rates above refer to the full screens.

#	S aureus helic	MgrA DNA FP	compound
1	22	·	CN(C)CCNC(=O)c1ccc(/C=C2\SC(=S)N(C)C2=O)cc1
2	14	1.6	C=CCN(CC=C)C(=O)c1ccc(N2C(=O)CCC2=O)cc1
3	-16	·	Cc1nc(COC(=O)c2cc(O)c3ccccc3c2O)cs1
4	7	·	CCN(CC)C(=O)c1ccc(Cn2cc(Cl)cn2)o1
5	·	-0.8	Cc1cc(CSc2cc(C)c(Cl)cc2Cl)no1
6	5	1.0	CC(C)(C)NC(=O)c1ccncc1
7	5	·	COc1cc(C2CC(=O)NC(SCC(=O)NCc3ccccc3)=C2C#N)ccc1O (stereo unspecified)
8	-7	·	O=C(COc1ccc(-n2cnnn2)cc1)Nc1ccccc1
9	6	·	COc1cc(OC)c(NC(=O)c2ccc3c(=O)n4c(nc3c2)CCCCC4)cc1Cl
10	12	·	CCOc1ccc2oc(-c3ccccc3)c(C(=O)O)c2c1

#	S aureus helic	MgrA DNA FP	compound
11	6	·	NNC(=S)Nc1ccc(S(=O)(=O)N2CCOCC2)cc1
12	1	1.8	CCN(CC)c1ccc(-n2nc3cc(C)c(N)cc3n2)cc1
13	·	-0.5	COc1ccc(C2CC(=O)C3=C(C2)NC(C)=C(C#N)C3c2ccc(Br)cc2)cc1 (stereo unspecified)
14	·	-0.4	CC(=O)NC(=O)c1cc2cc(Cl)cc(Cl)c2oc1=Nc1cccc(C#N)c1
15	31	·	Cc1ccc(N(C(=O)Nc2c(-c3c(Cl)cccc3Cl)noc2C)S(C)=O)cc1 (stereo unspecified)
16	-9	·	Cc1cc(C)nc(N/C=C(\C#N)S(=O)(=O)c2ccccn2)n1
17	-6	1.6	OCCN1C2=NCCCN2c2ccccc21
18	-8	·	O=C(Cn1cc(C(F)(F)F)ccc1=O)Nc1ccc(S(=O)(=O)N2CCCC2)cc1
19	4	·	O=C(COC(=O)C1CC(=O)N(Cc2ccco2)C1)NC1CCCc2ccccc21 (stereo unspecified)
20	4	0.0	O=C(CCc1c[nH]c2ccccc12)Oc1ccc(F)cc1

#	S aureus helic	MgrA DNA FP	compound
21	2	-1.1	c1cncc(CNC2CCCc3ccccc32)c1 (stereo unspecified)
22	·	-2.3	O=c1[nH]c2ccccc2nc1-c1ccc(Br)s1
23	·	-0.1	Cc1c(NC(=O)C(C)(C)C)c(=O)n(-c2ccccc2)n1C
24	·	8.7	CCOC(=O)c1cc2c3c(c1)C1C=CCC1C(c1ccc(F)cc1)N3CC1CC=CC21 (stereo unspecified)
25	-20	·	CCc1ccc(NS(=O)(=O)c2ccc3c(c2)CC(=O)N3)cc1
26	·	-1.4	COC(=O)c1cccc2cccc(-c3cccc4cccc(C(=O)OC)c34)c12
27	-13	0.7	N#CC(=C1CCCC1)c1nc2ccccc2[nH]1
28	40	·	COc1ccc(N2C(=O)C3N=NN(CC(=O)NCc4ccccc4)C3C2=O)cc1OC (stereo unspecified)
29	-8	·	CN(C)CCCn1c(-c2ccccc2)csc1=Nc1ccccc1
30	10	-0.6	CCOC(=O)c1c(C)oc(C)c1CN

#	S aureus helic	MgrA DNA FP	compound
31	-6	·	O=C(CSc1ncnc2ccccc12)N1CCCCC1
32	2	·	CC1CCCCN1C(=O)COC(=O)c1ccc(-n2cnnn2)cc1 (stereo unspecified)
33	-7	-0.8	COc1ccc(-n2c(C)c3c(C)nnc(C)c3c2C)cc1
34	·	3.2	COc1ccc(N2C(=O)NC(=O)/C(=C\c3cc(Cl)c(OCC(=O)O)c(Cl)c3)C2=O)cc1
35	15	-2.1	FC(F)(F)c1cc(Cl)c2nc(CSc3ncccn3)cn2c1
36	-42	·	S=C1NCN(CCc2ccccc2)CN1CC1CCCO1 (stereo unspecified)
37	-25	·	COc1ccc(NC(=O)c2ccc(NC(=O)CSC3=NCCN3)cc2)cc1
38	6	5.0	O=C1NN(c2ccccc2)C(=O)/C1=C/c1ccc(Br)cc1
39	10	·	COc1cccc(/C=C2\Oc3ccccc3NC2=O)c1
40	-4	·	CCOc1ccc(CN(C)C(=O)c2cn3ccccc3n2)cc1

#	S aureus helic	MgrA DNA FP	compound
41	11	·	CC(C)C(=O)NCCc1nc2ccccc2n1C
42	-9	·	COC(=O)c1nc(-c2ccccc2)oc1Nc1ccc(C)cc1
43	·	0.8	CCOC(=O)CN=C(NO)c1c(Cl)cccc1Cl
44	·	-0.5	CN1c2ccccc2C(=O)CS1(=O)=O
45	10	2.4	O=c1sc2ccccc2n1CCCOc1ccccc1Cl
46	6	·	O=C(CO/N=C/c1cccs1)N1CCCc2ccccc21
47	-1	15	O=C(O)CCC(=O)Nc1ccc(N2CCCCC2)c(C(=O)O)c1
48	-2	·	CCOC(=O)c1oc2ccccc2c1COC(=O)c1ccccc1OCC
49	·	-0.6	CN1CCN(c2nnc(-c3ccccc3)c(-c3ccccc3)n2)CC1
50	20	·	CN=c1scc(-c2c[nH]c3ccccc23)n1C

#	S aureus helic	MgrA DNA FP	compound
51	16	-2.1	COc1ccc(S(=O)(=O)N(C)CC(=O)N2CCCC2)cc1
52	·	1.6	CCn1c(Cn2nnc3ccccc32)nnc1SCC(=O)c1ccc(Br)cc1
53	5	-5.5	CCCCC(=O)C1CCOC(C)(C)C1 (stereo unspecified)
54	·	-0.3	COc1ccc(C(C)=O)c(OCc2ccccc2)c1
55	-22	3.2	Cc1nc2ccc(NC(=O)C(C)(C)C)cc2s1
56	18	-0.1	COC(=O)C1=C(CNC2CCCCC2)NC(=O)NC1c1cccc(OC)c1 (stereo unspecified)
57	·	1.6	COc1ccc(-n2ncc(C(=O)N3CCN(c4ccc(F)cc4)CC3)c2C)cc1
58	2	1.9	COc1cc2c(cc1OC)C(COc1ccc3c(C)cc(=O)oc3c1)N(C(=O)C1CC1)CC2 (stereo unspecified)
59	·	-1.3	Cc1ccc2sc(-c3ccc(NC(=O)CCN4C(=O)c5ccccc5C4=O)cc3)nc2c1
60	-19	·	NC1=Nc2cccc3cccc1c23

#	S aureus helic	MgrA DNA FP	compound
61	-14	·	COc1cc(C)cc(OC)c1OCC(=O)Nc1cccc(C#N)c1
62	-2	2.0	COc1ccc(CCNC(=O)CSc2nc3c(sc4ccccc43)c(=O)n2CCO)cc1OC
63	5	·	O=C(NCc1ccccc1)c1ccccc1NCC(=O)N1CCCCC1
64	3	1.3	O=C(C(O)c1ccccc1)N1N=C2CCCCC2C1(O)C(F)(F)F (stereo unspecified)
65	3	0.0	Cc1c(C(=O)N2CCc3ccccc32)sc2nc3n(c(=O)c12)CCCC3
66	-2	3.1	CCc1ccc(NC(=O)c2cc3c(=O)n(CC)c4ccccc4c3s2)cc1
67	12	·	CC(=O)Nc1ccccc1O
68	·	-0.2	Cc1cc(N2C(=O)CSC2c2cccnc2)no1 (stereo unspecified)
69	0	·	CCOC(=O)N1CCCC1C(=O)O (stereo unspecified)
70	0	0.6	CCCCC(CC)C(=O)Nc1ccccc1C#N (stereo unspecified)

#	S aureus helic	MgrA DNA FP	compound
71	9	0.2	Cc1ccc(C(=O)c2ccc(N3CCOCC3)c(F)c2)cc1
72	-1	1.1	O=C(Nc1ccc(Cl)cc1)C1CC/C(=C\c2ccccc2)C1=O (stereo unspecified)
73	-20	·	O=S(=O)(c1cccc(F)c1)N1CCN(c2nc3ccc(Cl)cc3s2)CC1
74	·	-2.3	COC(=O)c1c2ccccc2c(C)c2ccccc12
75	-11	·	Cc1cc(C)c2nc(SCc3nnc(-c4ccccc4)o3)cc(C)c2c1
76	-1	·	Cc1sc2ncnc(N3CCc4ccccc43)c2c1C
77	-1	·	CSc1ncccc1C(=O)Oc1ccc2c(c1)OCO2
78	-68	·	N#C/C(=C\c1ccc(-c2ccc(S(=O)(=O)N3CCOCC3)cc2)o1)C(=O)NCc1ccccc1
79	13	-0.7	S=C1N(c2ccccc2)C(c2ccccc2)N2CCCN12 (stereo unspecified)
80	8	1.5	CNC(=O)Cc1nnc(-c2ccc(C)cc2)o1

#	S aureus helic	MgrA DNA FP	compound
81	0	-4.8	COc1ccc(C2C=C(C(=O)O)Nc3ncnn32)cc1OC (stereo unspecified)
82	0	-3.1	CCOC(=O)c1sc2ncn(C(C)C(=O)OCc3ccccc3)c(=O)c2c1C (stereo unspecified)
83	-10	-12	NC(=O)COC(=O)c1ccccc1C(=O)c1ccccc1
84	11	·	COc1ccc(NC(=O)CC(C)C)cc1OC
85	-19	·	Cc1cc2ccccc2n1CCNC(=O)c1ccccc1
86	4	-2.8	COc1ccccc1CC(=O)NC1CC(C)(C)NC(C)(C)C1
87	-27	·	COc1ccc(N(C(=O)c2ccccc2)C2C=CS(=O)(=O)C2)cc1 (stereo unspecified)
88	4	·	O=C(CSc1ncnc2sc3c(c12)CCC3)NCCc1ccccc1
89	4	·	CCN(Cc1ccncc1)Cn1nc(C2COc3ccccc3O2)oc1=S (stereo unspecified)
90	·	-1.9	CC[C@@H](CO)NCCN[C@@H](CC)CO

#	S aureus helic	MgrA DNA FP	compound
91	·	-1.8	Cn1c(SCC(=O)OCC(=O)c2ccc(Cl)cc2)nc2c1c(=O)[nH]c(=O)n2C
92	4	·	NCc1ccccc1-n1cccc1
93	9	-2.6	O=C1CCC(=O)N1CC(O)Cn1c2ccccc2c2ccccc21 (stereo unspecified)
94	·	-0.7	CN(C)c1ccncc1C(=O)Nc1ccc(F)cc1F
95	10	·	CCC(C)NC(=O)c1nn(C)c(=O)c2ccccc12 (stereo unspecified)
96	7	-1.6	O=C(/C=N/O)Nc1ccccc1I
97	-3	·	Cc1nc2cc(C(=O)OCC(N)=O)ccc2n1-c1ccccc1
98	11	-2.0	CCOC(=O)c1cc(-c2ccc(C)cc2)n(CC(=O)NC2CCCC2)c1C
99	8	·	COc1cccc(Oc2coc3cc(O)ccc3c2=O)c1
100	-8	-1.2	FCc1nc2ccccc2s1

#	S aureus helic	MgrA DNA FP	compound
101	-16	·	O=C1N=C(N2CCCC2)S/C1=C/c1ccc(O)cc1
102	4	1.4	COc1cccc(C(=O)Nc2nn3c(-c4ccc(OC)c(OC)c4)nnc3s2)c1
103	·	-0.4	CC(=O)OCC(COC(C)=O)OC(C)=O
104	-7	·	N#C/C(=C\Nc1ccc(F)c(Cl)c1)C(=O)C1CC1
105	-17	·	Clc1c(CSc2nncn2-c2ccccc2)nc2ncccn12
106	1	-0.5	CC[N+](CC)=c1scc(-c2ccccc2)s1
107	0	-1.6	CCOC(=O)c1cccc(NC(=O)C(C)(C)CC)c1
108	-6	·	COc1ccc(NS(=O)(=O)c2ccc3oc(SC)nc3c2)cc1
109	-2	-0.1	Cc1cccc(NC(=O)CC2Nc3ccccc3NC2=O)c1 (stereo unspecified)
110	-5	·	CCn1cc(CNC(=O)CCc2ccc(OC)cc2)cn1

#	S aureus helic	MgrA DNA FP	compound
111	4	·	Cc1nc(N2CCOCC2)[nH]c(=O)c1Cc1c(F)cccc1Cl
112	·	0.7	Cc1onc(-c2ccccc2Cl)c1C(=O)N1CCOC(c2ccccc2)C1C (stereo unspecified)
113	9	·	CCCCc1c(C)c2ccc(OC)c(/C(C)=N\O)c2oc1=O
114	·	1.3	CC1(C)O[C@@H]2CC3C4CCC5=CC(=O)CCC5(C)C4(F)C(O)CC3(C)[C@]2(C(=O)CCl)O1 (stereo partly specified)
115	-4	·	Cc1nn(CCCC(=O)NCc2ccccn2)c(=O)c2cc3sccc3n12
116	8	-0.8	NC(=O)c1c2c(nc3ccccc13)CCCC2
117	16	-0.3	CCOC(=O)c1ccc(NC(=O)C(C)Sc2nc(O)c(NC(C)=O)c(=O)[nH]2)cc1 (stereo unspecified)
118	-4	2.0	O=C1CC(c2cccc(Cl)c2)CC(O)=C1C=NC1CCCC1 (stereo unspecified)
119	4	3.2	O=S(=O)(Nc1ccccc1)c1cccc2nsnc12
120	6	·	CCCCN(CC)c1ncnc2ccc(Br)cc12

#	S aureus helic	MgrA DNA FP	compound
121	·	-3.5	CCNC(=S)N1N=C2c3ccccc3CCC2C1c1ccc(F)cc1 (stereo unspecified)
122	10	-0.1	COc1ccc(S(=O)(=O)C(F)(F)F)cc1NC(C)=O
123	-18	·	Cc1ccc(OCC(O)CN2CCN(c3ccccc3)CC2)cc1 (stereo unspecified)
124	-1	2.5	CCn1c(=O)c(C(=O)NC)c(O)c2ccccc21
125	4	-1.0	O=C(NC(c1ccccc1)c1ccccc1)N1CCCCC1
126	8	·	CC1=CC(=C(C#N)C#N)C=C(C)N1c1ccc(C)c(C)c1
127	11	·	COC(=O)c1c(C)c(Cl)c(C)c(Cl)c1OC
128	·	5.2	Cc1noc(C)c1CSc1n[nH]c(=O)n1Cc1ccco1
129	9	·	O=C1NC(c2cccc(O)c2O)Nc2sc3c(c21)CCC3 (stereo unspecified)
